# High-throughput results: PubChem, several laboratories
# UCH37 inh: blocks the human deubiquitinase UCH37 | inhibition, % (concentration not given with the values) | 330,000 tested, 0.33% active | Q9Y5K5 | purified proteasome/UCH37, Ub-AMC cleavage fluorescence;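 active = mean of two replicates above 20%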;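 note: 0% = compound-free wells with enzyme and 100% = wells lacking proteasome; stock transfer was 100 nL into about 20 µL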
# Target sequence (Q9Y5K5 whole entry, looked up): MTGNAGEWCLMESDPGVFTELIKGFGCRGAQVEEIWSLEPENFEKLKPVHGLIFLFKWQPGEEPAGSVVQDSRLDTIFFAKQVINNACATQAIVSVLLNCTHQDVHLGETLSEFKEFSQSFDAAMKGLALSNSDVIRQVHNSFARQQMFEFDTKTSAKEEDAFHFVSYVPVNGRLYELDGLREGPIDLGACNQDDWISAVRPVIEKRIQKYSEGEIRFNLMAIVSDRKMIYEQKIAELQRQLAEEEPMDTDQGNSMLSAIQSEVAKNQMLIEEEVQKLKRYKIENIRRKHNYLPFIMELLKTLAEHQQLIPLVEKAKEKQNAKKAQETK
#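 Test system – human UCH37 enzyme supplied as purified proteasome complex · Incubation – 30 min preincubation with enzyme, 25 min cleavage at room temperature · Detection – AMC fluorescence from Ub-AMC cleavage, excitation 355 nm, emission 460 nm · Benchmarks – no-proteasome wells (full inhibition) and compound-free wells (no inhibition)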
# E coli growth: E. coli growth inhibition; AID 1053175; Escherichia coli growth, OD600, 23 h; stronger effect = lower value; OD600 absorbance (no concentration beside the values); 330,000 tested, 0.21% active;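 active = OD600 absorbance below the run mean of sample wells minus 3.6 SD, in any replicate, cut at about 0.56 in these data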;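 note: stock transfer was 300 nL into about 60 µL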
# rRNA inh HTS: inhibits bacterial ribosomal RNA function over humanized ribosomes; E. coli WT GFP vs humanized-ribosome RFP mutants, fluorescence, 24 h; stronger effect = lower value; DMSO median 0, no signal -100; GFP signal change (wild-type ribosome), % (concentration not given with the values); 350,000 tested, 1.6% active; AID 720706;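 active = significant combined selectivity score with lowered wild-type GFP, culture density cut under 30%, mutant RFP and density less affected; inactive = any of these conditions unmet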; note: one replicate is shown; some compounds called inactive have numbers as strong as hits
# FGF22 binding: binders of recombinant human FGF22 by thermal shift | 340,000 tested, 1.5% active | SYPRO orange fluorescence; percent of sucrose octasulfate shift, DMSO zero | Q9HCT0 | calls only at 9.99 µM;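 active = melting point raised past a set limit in the mean and every replicate; three in four hits are not shown here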
# ALR inh: blocks human ALR sulfhydryl oxidase activity; inhibition, % (test concentration not listed); purified ALR, DTT oxidation, H2O2 HRP-luminol luminescence; 290,000 tested, 3.8% active; P55789; AID 485317;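 active = mean and each replicate at 75% or more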;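 note: stock transfer was 7.5 nL into about 7.5 µL; 0% = neutral wells and 100% = wells with inactivated enzyme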
# Target sequence (P55789 whole entry, looked up): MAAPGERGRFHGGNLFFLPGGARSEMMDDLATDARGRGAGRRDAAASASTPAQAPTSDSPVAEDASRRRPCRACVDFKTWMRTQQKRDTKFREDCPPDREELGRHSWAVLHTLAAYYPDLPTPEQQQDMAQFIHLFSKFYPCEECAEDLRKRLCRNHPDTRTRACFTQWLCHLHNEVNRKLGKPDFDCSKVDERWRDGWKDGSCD
# HNF4A DNA FP: change in binding of human HNF4 alpha to DNA; HNF4a-FITC DNA binding, fluorescence polarization, 1 h; AID 1224865; activity change, % at 10 µM; 360,000 tested, 0.3% active; in the data active = activity change above about 30%, passing the limit was not always enough;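 note: controls were the assay level and a saturating level of protein; the project sought stronger binding though the title names inhibitors; some compounds called inactive have numbers as strong as hits; positive values seem to mean higher polarization but the record does not say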
# B2AR ag: human beta-2 adrenergic receptor agonism by FAP. Am2.2-beta2AR cells, FAP receptor internalization, flow cytometry; reference of the scale not given here. response, % (test concentration not listed). 340,000 tested, 0.43% active. AID 504454;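 active = response above a set limit, near 3 SD of response in nonfluorescent compounds, cut at about 42% in these data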;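 note: stock transfer was 100 nL into about 11 µL; a reference agonist was the positive control; negative values mostly stem from fluorescent compounds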
# Target sequence (P07550 whole entry, looked up): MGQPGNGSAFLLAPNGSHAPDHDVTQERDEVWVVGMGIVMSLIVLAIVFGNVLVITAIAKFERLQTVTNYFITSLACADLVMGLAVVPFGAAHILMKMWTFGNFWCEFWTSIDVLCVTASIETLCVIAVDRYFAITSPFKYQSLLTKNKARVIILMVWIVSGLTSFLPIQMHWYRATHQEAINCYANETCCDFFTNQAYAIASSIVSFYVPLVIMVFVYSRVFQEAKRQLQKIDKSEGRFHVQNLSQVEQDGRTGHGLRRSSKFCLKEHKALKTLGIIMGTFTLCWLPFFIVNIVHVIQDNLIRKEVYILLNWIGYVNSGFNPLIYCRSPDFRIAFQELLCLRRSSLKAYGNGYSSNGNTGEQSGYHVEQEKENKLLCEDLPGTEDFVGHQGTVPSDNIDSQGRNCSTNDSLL
# rRNA inh HTS OD600: also measured in rRNA inh HTS; calls as there; OD600 change, %; measured here: OD600 growth;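 optical density of the mix in the first replicate; 0 = DMSO median and -100 = no signal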
# rRNA inh HTS RFP: further read-out of rRNA inh HTS, marked with its call; RFP signal change, %; measured here: RFP humanized mutant strains;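 first replicate; 0 = DMSO median and -100 = no signal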
# The depositor's hits bear a star; i = inactive; . = not tested or not shown; & = joins results of further samples. Some of the compounds tested; rates above refer to the full screens.
SMILES,UCH37 inh,E coli growth,rRNA inh HTS,rRNA inh HTS OD600,rRNA inh HTS RFP,FGF22 binding,ALR inh,HNF4A DNA FP,B2AR ag
CN(Cc1cccc2ccccc12)C(=O)c1cc(COc2c(F)cccc2F)on1,1.8,0.717,-28.4,-42.3,-7.6,i,1.2,3.6,2.1
COc1cc(/C=C2\SC(=S)N(CC(=O)NC3=NCCS3)C2=O)cc(OC)c1OC,6.4,0.743,8.0,4.5,3.4,i,-2.2,10.9,-2.9
Cc1cc2cc3c(cc2nc1SCc1ccccn1)OCCO3,3.6,0.71,7.2,12.6,-1.2,i,-45.1,0.6,-2.7
CC(=O)c1ccc(OCc2cc(C(=O)NC(C)CCn3cccn3)no2)cc1 (stereo unspecified),4.0,0.682,5.5,9.0,2.0,i,-11.5,5.2,0.0
COC(=O)c1ccc(NC(=O)CN2C(=O)CSC2=O)cc1,-1.7,0.669,.,.,.,.,.,3.2,0.8
Cc1cccc(NC(=O)Cn2c(=O)n(Cc3ccco3)c(=N)c3c4c(sc32)COC(C)(C)C4)c1,-2.6,0.747,.,.,.,.,.,3.9,2.6
O=C1c2cccc3cccc(c23)C(=O)N1CCCN1CCN(c2ccc(F)cc2)CC1,-3.5,0.651,-13.1,-1.6,10.9,i,13.9,-0.2,-3.3
COc1ccc(Nc2oc(-c3cccs3)nc2C#N)cc1,-61.4,0.711,.,.,.,.,.,-0.2,1.7
O=C(CSc1nc(-c2ccc(F)cc2)cc(C(F)(F)F)n1)NCCN1CCOCC1,-1.9,0.794,-5.9,-3.2,-0.4,.,-3.2,0.5,3.4
COc1ccc(Cl)cc1NC(=O)CSc1nnc(COc2ccccc2)n1C,5.4,0.663,.,.,.,.,-5.1,-3.4,-10.2
Cc1cccc2sc(NC(=O)CNS(=O)(=O)c3ccc(Br)s3)nc12,4.0,0.737,.,.,.,.,.,1.7,3.7
CS(=O)(=O)N(CC(=O)N1CCOCC1)c1cccc(F)c1,3.5,0.666,6.6,4.1,11.6,i,2.2,-1.4,-3.2
CC(C)CNC(=O)c1nc(-c2ccccc2)n(-c2ccccc2)n1,2.6,0.71,.,.,.,.,3.0,-1.8,-10.7
c1csc(CNc2nc3ccccc3n2CCN2CCOCC2)c1,-0.8,0.727,.,.,.,.,15.8,-1.2,-10.2
CCOC(=O)CC(=O)CSc1nc(CC)c(C)cc1C#N,-61.2,0.662,9.1,3.1,2.8,i,9.3,1.9,-3.6
CNc1cncc(-c2ccc(OCCCN(C)C)nc2)n1,.,.,13.2,14.5,28.3,i,.,1.3,.
COc1ccc(C(=O)c2ccc(Cl)cc2)c2ccccc12,4.0,0.799,.,.,.,.,-6.3,-1.2,4.1
CS(=O)(=O)N1CCN(c2ccc([N+](=O)[O-])c(NCCN3CCOCC3)c2)CC1,8.7,0.68,.,.,.,.,-7.0,0.9,2.1
CC(C)(C)C(=O)COC(=O)c1ccc(O)cc1,4.3,0.759,.,.,.,.,3.5,-0.6,-5.6
CCOC(=O)CSc1ncc(-c2ccc([N+](=O)[O-])cc2)[nH]1,11.6,0.69,3.5,3.8,-6.8,i,32.1,-0.5,14.8

# Arranged by formula weight (rising): some entries from above.
SMILES,UCH37 inh,E coli growth,rRNA inh HTS,rRNA inh HTS OD600,rRNA inh HTS RFP,FGF22 binding,ALR inh,HNF4A DNA FP,B2AR ag
CCOC(=O)CC(=O)CSc1nc(CC)c(C)cc1C#N,-61.2,0.662,9.1,3.1,2.8,i,9.3,1.9,-3.6
CCOC(=O)CSc1ncc(-c2ccc([N+](=O)[O-])cc2)[nH]1,11.6,0.69,3.5,3.8,-6.8,i,32.1,-0.5,14.8
CS(=O)(=O)N(CC(=O)N1CCOCC1)c1cccc(F)c1,3.5,0.666,6.6,4.1,11.6,i,2.2,-1.4,-3.2
CC(C)CNC(=O)c1nc(-c2ccccc2)n(-c2ccccc2)n1,2.6,0.71,.,.,.,.,3.0,-1.8,-10.7
Cc1cccc2sc(NC(=O)CNS(=O)(=O)c3ccc(Br)s3)nc12,4.0,0.737,.,.,.,.,.,1.7,3.7

# Further compounds follow.
SMILES,UCH37 inh,E coli growth,rRNA inh HTS,rRNA inh HTS OD600,rRNA inh HTS RFP,FGF22 binding,ALR inh,HNF4A DNA FP,B2AR ag
CC(C)Oc1ccc(CCNC(=O)CC2C(=O)NCCN2C)cc1 (stereo unspecified),-3.0,0.711,6.8,8.3,5.0,i,4.3,-2.5,-0.7
COc1ccc(C(=O)NCC(C)(C)N2CCOCC2)cc1S(=O)(=O)N1CCCC1,-0.2,0.668,5.9,-0.8,-1.2,i,.,4.7,-1.0
CCCCCCOc1ccc(C(CC(N)=O)C(=O)O)cc1 (stereo unspecified),0.0,0.68,6.6,5.0,-0.6,i,-0.4,1.4,10.5
Cc1nc(NC(=S)NC(=O)COc2ccccc2Cl)ccc1Br,3.9,0.709,6.1,4.3,-1.0,i,-4.0,0.7,1.2
COc1ccc(NC(=O)/C(C#N)=C/C=C/c2ccco2)cc1,7.2,0.694,4.7,-0.9,7.4,i,-13.4,0.2,-15.0
CN(Cc1ccco1)Cc1ccc(O)c2ncccc12,0.5,0.676,.,.,.,.,5.2,7.9,16.1
COc1ccc(CNC(=O)[C@H](C)NC(=O)C2CCN(S(=O)(=O)c3ccc(F)cc3)CC2)cc1,-0.3,0.694,18.2,6.9,1.7,i,-1.1,-0.4,-0.6
CCCCNC(=O)CCC(=O)Nc1ncc(-c2ccc(C)cc2)n1C,-0.4,0.685,-0.4,-3.0,3.7,.,1.1,2.1,-8.1
CCCn1c(C)cc(/C=C(\C#N)C(=O)OCC(=O)NC(=O)NCC)c1C,-45.9,0.745,.,.,.,.,.,-1.0,0.8
COc1ccc(/C=N\NC(=O)CNC(=O)C(c2ccccc2)c2ccccc2)cc1[N+](=O)[O-],.,.,-1.9,-1.2,-1.9,i,0.7,0.2,-0.6
C/C(=N\N1CCN(C2c3ccccc3-c3ccccc32)CC1)c1ccco1,.,.,.,.,.,i,-3.9,-0.9,-3.2
O=C(Nc1ccc(OC(=O)c2cccnc2)cc1)c1cccnc1,3.0,0.673,.,.,.,.,0.5,-4.7,8.5
O=C(Cc1ccc(-n2cccc2)cc1)NCc1cccs1,3.4,0.768,.,.,.,.,2.8,-2.6,17.4
Cc1ccc(NC(=O)CCN2CC(C)OC(C)C2)cc1 (stereo unspecified),3.3,0.681,3.4,13.6,2.3,i,-10.8,7.6,2.3
COc1ccc(CNC(=O)C2CCN(S(=O)(=O)c3ccc4nc5c(c(C(=O)O)c4c3)CC(C)CC5)CC2)cc1 (stereo unspecified),4.3,0.677,6.3,9.0,5.3,i,-0.1,6.8,-6.2
CCOC(=O)C1C(=O)NC(SC)=C(C#N)C1c1ccccc1F (stereo unspecified),2.8,0.709,.,.,.,.,16.5,2.4,-4.2
CN1CCN(C(=O)C2CCC(=O)N(Cc3cccc(C(F)(F)F)c3)C2)CC1 (stereo unspecified),4.3,0.727,15.6,8.2,2.1,i,-2.6,0.4,-5.6
Clc1ccc(N2CCCCCC2)nn1,4.6,0.666,.,.,.,.,-8.2,1.0,-3.5
COc1ccc(Nc2ccc(S(=O)(=O)N3CCCCC3)cc2[N+](=O)[O-])cc1,0.4,.,.,.,.,.,-0.5,-3.8,-4.9
Cc1ccc(NC(N)=S)cc1C,3.5,0.717,5.5,0.9,-6.2,i,-9.8,-3.3,2.3
N#Cc1cc([N+](=O)[O-])ccc1NCCCn1ccnc1,10.2,0.637,7.8,8.6,-1.5,i,-7.9,-0.5,0.7
C[C@@H]1CN([C@H](C)CO)S(=O)(=O)c2ccc(Br)cc2O[C@@H]1CN(C)C(=O)CN1CCOCC1,.,.,4.0&0.6,15.4&-2.6,-0.6&-1.2,i,.,-3.1,.
COc1ccc(-c2cc(C3CC3)nc(SCC(=O)c3cccs3)c2C#N)cc1,1.6,0.745,.,.,.,.,.,2.8,10.9
CCOc1ccc(N(CC(=O)Nc2cccc(Cl)c2)S(=O)(=O)c2c(C)noc2C)cc1,5.4,0.712,-8.6,-14.2,-9.5,i,96.8*,2.7,3.6
O=C(Cn1nc(C(=O)O)c2ccccc2c1=O)Nc1cccc(S(=O)(=O)N2CCCCC2)c1,-0.6,0.679,-6.7,-4.0,4.0,i,0.3,3.3,-10.5
O=c1ccn([C@@H]2O[C@H](CNS(=O)(=O)c3cc4ccccc4s3)[C@@H](O)[C@H]2O)c(=O)[nH]1,.,.,1.6,22.8,3.6,i,.,5.3,-6.9
Cc1cc(Nc2cccc([N+](=O)[O-])c2)n2c(nc3ccccc32)c1C#N,4.6,0.73,-1.3,-2.0,2.4,.,24.8,-1.0,5.6
COc1ccc(-c2csc(N(CCCN(C)C)C(=O)c3ccc(C(C)(C)C)cc3)n2)cc1,2.1,0.624,-18.8,-20.7,-4.5,i,-21.6,-1.9,3.4
Cc1nn(C)c(C)c1CNC(=O)c1cnn2c1NC(c1ccccc1)CC2C(F)(F)F (stereo unspecified),1.6,0.659,1.6,-3.8,1.8,.,-3.8,1.0,-1.0
COc1ccc(S(=O)(=O)Nc2ccc(C)c(S(=O)(=O)N3CCOCC3)c2)cc1[N+](=O)[O-],2.5,0.681,8.8,5.0,-2.7,i,.,3.5,-6.3
Nc1nc(-c2ccco2)nn1C(=O)c1ccccc1,-2.5,0.746,.,.,.,.,2.5,-1.2,-1.4
O=C(NCc1cccnc1)c1cn(-c2ccccc2)nc1-c1cccs1,-0.5,0.682,-4.9,-3.9,7.2,i,-21.2,0.4,-12.5
O=C(COC(=O)/C=C/c1cccc(F)c1)Nc1cccc(S(=O)(=O)NC2=NCCCCC2)c1,1.9,0.665,-5.4,4.1,2.8,i,-3.2,2.6,4.5
Cc1ccc(NC(=O)CSc2ccc(-c3ccco3)nn2)c(C)c1,3.5,0.727,0.8,-1.0,3.1,i,49.8,-2.6,1.7
COc1ccc(CN2CCNC(=O)C2CC(=O)N(C)CCC2CCOCC2)cc1OC (stereo unspecified),0.4,0.682,12.1,18.2,2.3,i,-7.6,-3.0,-0.4
CC1(C(=O)OCc2cc(=O)n3cc(Br)ccc3n2)CC1(Cl)Cl (stereo unspecified),-2.6,0.654,-15.3,-24.9,-1.5,.,4.9,-0.3,-24.8
NS(=O)(=O)c1ccc(CCNC(=O)COC(=O)C2CCN(c3ccc(C(F)(F)F)cn3)CC2)cc1,0.8,0.691,-6.9,-9.0,0.7,i,-3.1,4.4,11.4
Cc1ccccc1CNC(=O)C1CCC(=O)N(C2CCCCCC2)C1 (stereo unspecified),4.8,0.701,-2.4,-0.6,0.6,i,-1.9,-1.3,0.3
COc1ccccc1Nc1ncccc1C(=O)NCc1ccccc1,-1.0,0.672,.,.,.,.,-22.5,-1.9,1.3
C=CCNC(=O)c1cccc(C(F)(F)F)c1,3.6,0.715,.,.,.,.,-1.0,-4.9,1.0
O=C(O)C1=C[C@@H](c2coc3ccccc3c2=O)C[C@@H](OCCCCO)O1,1.2,.,1.9,12.4,0.5,i,.,-8.1,0.0
CCc1nc2ccccc2c(C(=O)Nc2cccc(C)c2)c1C,1.6,0.654,12.2,6.8,-2.7,i,-7.1,1.0,-1.6
Cc1cc2c(cc1C)[n+](C)cn2CC(O)COCc1ccccc1 (stereo unspecified),3.1,0.68,.,.,.,.,0.3,1.8,-4.6
C[C@H](NC(=O)c1ccccc1Cl)C(=O)OCCOc1cccc(Cl)c1,4.5,0.676,-43.7,-37.2,-8.7,i,3.3,1.8,4.6
Cc1nc(Nc2ccccc2O)c2oc3ccccc3c2n1,7.2,0.701,15.8,15.9,0.1,i,-5.5,4.1,0.1
